miR-21 FLuc – miR-21 reporter, rising signal. HeLa miR-21 FLuc reporter, luciferase, 48 h. Potency, µM (doses to about 38.3 µM), inactives show at the top dose reporter change, positive = more light. 340,000 tested, under 10 active. AID 2288; active = well fitted rising curve with a large enough effect; inconclusive = small, poorly fitted or top-dose-only effect; inactive = no such curve, though single readings can be large or run the other way;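 note: % of control where 0% means no effect; miR-21 action dims this reporter so a rising signal means less miR-21 action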
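Using DMEM plus 10% FBS, HeLa miR-21-FLuc cells are incubated with test compounds (final up to about 40uM) for 48 hours; firefly luciferase signal is then imaged following reagent-mediated lysis.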
Rango complex inh – prevents formation of the Rango-importin beta complex | Q14974 | Rango CFP/YFP FRET sensor + importin beta, 45 min | Potency, µM (highest dose often 92.2 µM), for the others: top-dose inhibition of complex formation | 340,000 compounds, 0.031% hits; active = rising FRET ratio curve, often small or poorly fitted; inconclusive = mostly compound fluorescence or quenching in the first reads; inactive = flat curves in all reads;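 note: potency is the fitted concentration of half-maximal effect; 0% = DMSO wells and 100% = buffer wells lacking importin beta; nearly all actives have a fitted effect of over 15% in size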
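FRET biosensor Rango (snurportin 1 IBB between N-terminal EYFP and C-terminal Cerulean), 50 nM in PBS/1 mM DTT/0.02% Tween-20/0.1% BSA, preincubated 5 min RT with compound; 0.125 microM importin beta added, 45 min RT, CFP/YFP FRET ratio read.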
Rango dissoc inh – inhibitors of RanGTP-induced Rango-importin beta complex dissociation; O95149+P62826; Biochemical FRET Rango-importin beta, RanGTP-induced dissociation; Potency, µM (series often up to 46.1 µM), inactives show at the top dose activity change, negative = inhibition; 340,000 compounds, 0.071% hits; AID 540253; active means falling FRET ratio curve, often poorly fitted, with flat reads before Ran was added; inconclusive means other falling curves, or compound fluorescence or quenching; inactive means flat or rising ratio curve;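 note: potency is the fitted concentration of half-maximal effect; % of control where 0% means no effect; nearly all actives have a fitted effect of over 45% in size; -100% = wells without RanGTP and RCC1; the record marks most hits as doubtful in a second field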
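Compounds sat 5 min at room temperature with 0.1 uM Rango biosensor plus 0.25 uM importin beta, then FRET pre-read. RanGTP-RCC1 (0.6 uM Ran, 2mM GTP, 0.2 uM RCC1) added for 45 min, and the CFP/YFP post-read measured blocked complex dissociation.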
GLA inh pH 4.5 – inhibitors of human alpha-galactosidase A at pH 4.5 | P06280 | purified enzyme, 4-MU-alpha-Gal fluorescence, pH 4.5 | activity change, negative = inhibition, % at 105 µM | 230,000 tested, under 10 active | AID 1467; inconclusive = small, poorly fitted or top-dose-only inhibition, or a rising curve; inactive = flat fitted curve, though single readings scatter; no compound was filed as active;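 note: 0% = full activity with enzyme and -100% = basal without enzyme; dose as in the result columns while the protocol names 77 µM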
Target sequence (P06280 whole entry, looked up): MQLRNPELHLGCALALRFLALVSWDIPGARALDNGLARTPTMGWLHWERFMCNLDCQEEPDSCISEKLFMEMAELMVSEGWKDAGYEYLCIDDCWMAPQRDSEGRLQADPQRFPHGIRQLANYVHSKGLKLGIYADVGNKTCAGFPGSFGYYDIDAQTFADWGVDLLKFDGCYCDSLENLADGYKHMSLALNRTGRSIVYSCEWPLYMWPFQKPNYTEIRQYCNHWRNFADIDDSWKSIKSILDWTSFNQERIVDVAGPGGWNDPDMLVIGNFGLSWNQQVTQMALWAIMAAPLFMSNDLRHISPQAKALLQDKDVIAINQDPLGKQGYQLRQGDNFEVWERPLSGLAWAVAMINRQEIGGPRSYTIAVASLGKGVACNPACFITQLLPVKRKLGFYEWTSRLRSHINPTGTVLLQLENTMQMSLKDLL
The depositor's hits bear a star; ? = inconclusive; . = no result given. Only part of the results is shown, so the mix of outcomes need not match the whole.

Below each SMILES: Rango complex inh, Rango dissoc inh, miR-21 FLuc, GLA inh pH 4.5
1: Cc1ccc2nc(SCC(=O)c3ccc4c(c3)OCO4)[nH]c2c1
→ -2.1%, -2%, -23%, 6
2: Cc1noc(C)c1CSCC(=O)N(CC(C)C)c1c(N)n(Cc2ccccc2)c(=O)[nH]c1=O
→ -1.2%, 1%, ., .
3: O=C(Nc1ccncc1)C1CCN(S(=O)(=O)c2cccs2)CC1
→ -1.4%, -13%, -2%, -5
4: O=C(CCc1nnc(-c2ccsc2)o1)N1CCCCC1CCn1ccnc1 (stereo not drawn)
→ 2.1%, -16%, -2%, 3
5: Cc1cccc(C)c1N1C(=O)C(Cl)=C(N2CCCC2)C1=O
→ ?, ?, -2%, .
6: O=C(NC1CCCCC1)c1ccc([N+](=O)[O-])cc1
→ 3.9%, 25%, ., .
7: O=C(O)CC1Sc2nc3ccccc3n2C1=O (stereo not drawn)
→ 0.1%, 1%, -5%, -3
8: CSc1ccccc1OCc1cc(C(=O)N2CCN(C)C(c3ccccc3)C2)no1 (stereo not drawn)
→ 0.5%, -8%, ., .
9: CCOC(=O)N1CCC(Nc2c(NCCCN(C)Cc3ccccc3)c(=O)c2=O)CC1
→ 0.5%, 2%, -2%, -2
10: CCC(C)N(C(=O)CSc1nc(-c2ccccc2)cs1)C1CCS(=O)(=O)C1 (stereo not drawn)
→ -1.3%, -19%, -3%, 2
11: CCCn1nnc(NC(=O)c2ccc3c(c2)OCO3)n1
→ 1.5%, -7%, -45%, 0
12: CN(Cc1ccccc1)C(=O)COC(=O)/C=C/c1ccc2c(c1)OCO2
→ -3.7%, -15%, ., .
13: Cc1ccc(-c2nc3c(cnn3-c3ccccc3)c(=O)o2)cc1
→ -0.5%, -13%, 1%, 10
14: O=C/C(=C\Nc1ccccn1)c1nc2cc(Cl)ccc2o1
→ ?, ?, -21%, -4
15: Cc1cc(C)n(-c2ccc(C(=O)OC(C)C)cc2)n1
→ 1.3%, -8%, -15%, 0
16: CCOc1ccc(S(=O)(=O)Nc2ccc(C(=O)N/N=C(\C)c3ccc(-n4ccnc4)cc3)cc2)cc1
→ -2.3%, -10%, -3%, 4
17: Cc1ccc(N(C(=O)c2ccncc2)C2C=CS(=O)(=O)C2)cc1 (stereo not drawn)
→ 0.1%, 11%, -7%, 5
18: CCOC(=O)c1cc(-c2ccc(Cl)cc2)nc2onc(C)c12
→ ., ., -6%, 16
19: CCC(=O)Nc1nc2ccccc2n1Cc1ccc(Cl)cc1
→ 0.3%, 0%, 22%, -2
20: O=C(COC(=O)Cn1cc(C(F)(F)F)ccc1=O)NCc1ccccc1
→ 0.8%, 11%, ., .
21: CNS(=O)(=O)c1ccc2ccccc2c1
→ -2.8%, 14%, -4%, -1
22: CCOc1ccccc1N1CCN(C(=S)NCc2ccccc2)CC1
→ 4.5%, -6%, 1%, 3
23: COC(=O)c1sccc1-n1cccc1C(=O)C(=O)N1CCOCC1
→ 0.1%, -6%, 0%, -12
24: O=C(Nc1ccccc1-c1nc2ccccc2s1)c1cccnc1
→ 1.1%, 0%, -6%, 9
25: CSc1cccc(N2CC(C(=O)N3CCN(S(=O)(=O)c4ccccc4Cl)CC3)CC2=O)c1 (stereo not drawn)
→ 1.5%, -6%, ., .
26: CN1C2CCC1CC(NS(=O)(=O)c1cc(Cl)c(Cl)cc1Cl)C2 (stereo not drawn)
→ -0.2%, -5%, -6%, .
27: CCn1c(N2CCN(C(=O)Nc3ccc(F)cc3)CC2)nc2ccccc21
→ -0.1%, -2%, -3%, 6
28: O=[N+]([O-])c1ncccc1OCc1ccc(Br)cc1F
→ 6.5%, 15%, -1%, .
29: COc1cc(/C=N/n2c(C3CCCCC3)n[nH]c2=S)cc(OC)c1O
→ ?, -28%, -11%, .
30: O=C(CNC(=O)c1ccccc1F)c1ccccc1
→ 1.0%, 14%, -27%, .

(further entries)
Below each SMILES: Rango complex inh, Rango dissoc inh, miR-21 FLuc, GLA inh pH 4.5
31: O=C(NCc1cccc(Cl)c1)c1cccc(C(F)(F)F)c1
→ 3.4%, 1%, -7%, -11
32: C=CCn1c(SCc2cccc(C#N)c2)nnc1-c1ccccc1O
→ 6.2%, 31%, -6%, 6
33: CCC(=O)Nc1cccc(C(=O)/C=C/c2cc(Br)ccc2OC)c1
→ -2.3%, -7%, ?, -3
34: O=C(CNC(=O)c1ccccc1F)N/N=C\C=C\c1ccccc1
→ 1.2%, -14%, -4%, .
35: CC(C)CNS(=O)(=O)c1ccc(OCC(=O)Nc2ccc3c(c2)OCCO3)cc1
→ -3.9%, -9%, -2%, 6
36: O=C(CSc1ncn[nH]1)NC12CC3CC(CC(C3)C1)C2
→ -0.4%, 3%, 1%, 4
37: Cc1cccc(N2CCN(C(=O)CN3CCOc4ccccc43)CC2C)c1 (stereo not drawn)
→ ?, ?, 6%, 0
38: Cc1cc(NC(=O)c2ccc(C)s2)n(-c2ccccc2)n1
→ -0.3%, -7%, -8%, 2
39: COc1cccc(CN2CC(C(=O)NCc3ccc(Cl)s3)CCC2=O)c1 (stereo not drawn)
→ 0.2%, 27%, -7%, .
40: CCN(c1ccccc1)S(=O)(=O)c1ccc(C(=O)Nc2nccs2)cc1
→ -1.1%, 12%, 14%, 4
41: Cc1cc(C)c(OCCCCN2CCNCC2)c(C)c1
→ -0.3%, -9%, -10%, .
42: O=C(NCCCN1CCCC1=O)c1ccc(NS(=O)(=O)c2ccccc2)cc1
→ -2.3%, 0%, ., .
43: Cc1ccc(-n2nnc3c(=O)n(Cc4cc(C)ccc4C)cnc32)cc1
→ -0.6%, -4%, 1%, 4
44: CC(C)(C)C(=O)Nc1c2c(nn1-c1ccccc1)CSC2
→ -0.3%, 24%, -3%, .
45: CCCCC(=O)N1C/C=C\[C@H](c2ccc(OC)cc2)N(Cc2ccc(F)cc2)C(=O)[C@@H]1C
→ 0.0%, -6%, ., .
46: Cc1ccccc1NC(=O)NCC1CCN(C(=O)OC(C)(C)C)CC1
→ -0.2%, -10%, -8%, -5
47: O=C(c1cn(-c2ccccc2)nc1-c1cccs1)N1CCOCC1
→ 5.5%, -2%, -14%, 1
48: Cc1ccc(-c2cc(C(=O)NCCCN3CCOCC3)no2)cc1
→ 13%, -10%, 19%, -2
49: O=C(O)CC(NC(=O)CCC1CCCCC1)c1cc([N+](=O)[O-])ccc1Cl (stereo not drawn)
→ -0.1%, -8%, -5%, 11
50: O=C(O)CCCCCN1C(=O)c2ccc(C(=O)O)cc2C1=O
→ -1.2%, 9%, 1%, 1
51: O=C1c2ccc(Br)cc2C(=O)N1c1ccc(Cl)cn1
→ -3.3%, -4%, -1%, .
52: Cc1ccccc1C(=O)NNc1ccc(-c2csnn2)cc1
→ 2.5%, 1%, 6%, -2
53: CC1(c2ccc(Cl)cc2)NC(=O)N(CN2CCOCC2)C1=O (stereo not drawn)
→ 3.7%, 0%, 1%, .
54: Cc1cc(C(=O)CSc2nnnn2C)c(C)n1-c1cccc(F)c1
→ -0.5%, 3%, -26%, -10
55: CCc1cccc(NC(=O)C2CCN(S(=O)(=O)c3ccc4c(c3)NC(=O)CO4)CC2)c1
→ 3.5%, -17%, 16%, .
56: COc1ccc(C2C(=O)N(CCc3ccccc3)CC(=O)N2C2CCCCC2)cc1 (stereo not drawn)
→ -0.5%, -10%, 0%, 2
57: COc1ccc(CNC(=O)c2sccc2-c2ccccc2)cc1OC
→ ?, 20%, 8%, .
58: CN(C)S(=O)(=O)c1cccc(NC(=O)COC(=O)CCc2nc3ccccc3s2)c1
→ 3.1%, 4%, 3%, -2
59: O=C(COc1ccc(CO)cc1)Nc1ccc(F)cc1
→ -0.6%, 1%, -20%, -2
60: CC1CC(C)CN(c2ccc(C(=O)OCC(=O)NC3CCCc4ccccc43)cc2[N+](=O)[O-])C1 (stereo not drawn)
→ 3.7%, 14%, -1%, -7

Excerpt, entries 57 to 59
Below each SMILES: Rango complex inh, Rango dissoc inh, miR-21 FLuc, GLA inh pH 4.5
57: COc1ccc(CNC(=O)c2sccc2-c2ccccc2)cc1OC
→ ?, 20%, 8%, .
58: CN(C)S(=O)(=O)c1cccc(NC(=O)COC(=O)CCc2nc3ccccc3s2)c1
→ 3.1%, 4%, 3%, -2
59: O=C(COc1ccc(CO)cc1)Nc1ccc(F)cc1
→ -0.6%, 1%, -20%, -2

The listing continues.
Below each SMILES: Rango complex inh, Rango dissoc inh, miR-21 FLuc, GLA inh pH 4.5
61: O=c1cc(-c2ccccc2)nc2cc(-c3ccc(Br)cc3)[nH]n12
→ -0.3%, 1%, -10%, .
62: CC(=O)NC(=S)Nc1ccccc1F
→ ?, -2%, -7%, -4
63: COc1cccc(Cn2c(=O)c3ccccc3n3nc(C)cc23)c1
→ -2.2%, 1%, -4%, 6
64: O=C(CCc1nc(-c2ccccc2Cl)no1)NC1CCCCC1
→ -2.1%, 13%, -8%, .
65: O=C(c1ccc(S(=O)(=O)Nc2cccc(C(F)(F)F)c2)cc1)N1CCC1
→ 2.8%, 27%, -6%, .
66: CCN1C(=O)[C@H]2[C@@H](c3ccc(C)cc3)N3C(=O)N(c4cccc(Cl)c4)C(=O)[C@@]3(Cc3ccccc3)[C@H]2C1=O
→ -0.8%, -12%, ., .
67: Cc1ccsc1C(=O)OCC(=O)N(C)C1CCCCC1
→ -1.6%, 12%, ., .
68: CC(=O)NS(=O)(=O)c1ccc(NC(=O)/C=C/c2ccc(C)o2)cc1
→ 0.1%, -9%, 3%, 7
69: Cc1c(C(=O)N(C)C)sc2nc(-c3ccccn3)[nH]c(=O)c12
→ 2.7%, -1%, -25%, 2
70: CC(=O)N1CCC(C(=O)N2CCN(S(=O)(=O)c3ccc(Cl)s3)CC2)CC1
→ 0.6%, -14%, ., .
71: O=C(CN1C(=O)NC2(CCCCC2)C1=O)Nc1cccc(S(=O)(=O)N2CCCC2)c1
→ -0.2%, -1%, ., .
72: O=C(CNC(=O)c1cccs1)NCC(=O)OCc1cccc(Cl)c1
→ 2.5%, 1%, -1%, 8
73: NC(=O)c1nsc(C(=O)N(c2ccc3c(c2)OCCO3)C(C(=O)NCC2CCCO2)c2ccc(F)cc2)c1N (stereo not drawn)
→ -0.2%, 7%, -14%, .
74: Cc1occc1C(=O)Nc1nnc(C2CCCCC2)s1
→ -0.1%, 2%, -36%, 7

Entries listed so far containing bromine:
Below each SMILES: Rango complex inh, Rango dissoc inh, miR-21 FLuc, GLA inh pH 4.5
28: O=[N+]([O-])c1ncccc1OCc1ccc(Br)cc1F
→ 6.5%, 15%, -1%, .
33: CCC(=O)Nc1cccc(C(=O)/C=C/c2cc(Br)ccc2OC)c1
→ -2.3%, -7%, ?, -3
51: O=C1c2ccc(Br)cc2C(=O)N1c1ccc(Cl)cn1
→ -3.3%, -4%, -1%, .
61: O=c1cc(-c2ccccc2)nc2cc(-c3ccc(Br)cc3)[nH]n12
→ -0.3%, 1%, -10%, .

A few values from the entries so far:
O=C(CCc1nc(-c2ccccc2Cl)no1)NC1CCCCC1 in miR-21 FLuc reads -8%
O=C(CNC(=O)c1cccs1)NCC(=O)OCc1cccc(Cl)c1 in Rango dissoc inh reads 1%

Some of these compounds in order of the GLA inh pH 4.5 value, falling.
Below each SMILES: Rango complex inh, Rango dissoc inh, miR-21 FLuc, GLA inh pH 4.5
24: O=C(Nc1ccccc1-c1nc2ccccc2s1)c1cccnc1
→ 1.1%, 0%, -6%, 9
40: CCN(c1ccccc1)S(=O)(=O)c1ccc(C(=O)Nc2nccs2)cc1
→ -1.1%, 12%, 14%, 4
15: Cc1cc(C)n(-c2ccc(C(=O)OC(C)C)cc2)n1
→ 1.3%, -8%, -15%, 0
7: O=C(O)CC1Sc2nc3ccccc3n2C1=O (stereo not drawn)
→ 0.1%, 1%, -5%, -3
14: O=C/C(=C\Nc1ccccn1)c1nc2cc(Cl)ccc2o1
→ ?, ?, -21%, -4
31: O=C(NCc1cccc(Cl)c1)c1cccc(C(F)(F)F)c1
→ 3.4%, 1%, -7%, -11

Source: PubChem BioAssay
